# Bioassay records as filed in PubChem.
# LASV entry inh = Lassa virus entry inhibition | Lassa virus pseudotype entry inhibition, cell reporter; control for the full effect not named in the record | Potency, µM (doses to about 37.9 µM), inactives show top-dose activity change, negative = inhibition, usual class: inhibitors | actives 1.2% (n = 300,000) | AID 540256; active means well fitted inhibition curve with a large enough effect; inconclusive means small, poorly fitted or top-dose-only effect, or effect the other way; inactive means flat fitted curve, though single readings scatter; tested in HEK293 cells; also: % is scaled to controls: 0 for no effect and ±100 for the full control effect; nearly all actives have a fitted effect of over 50% in size; luciferase read-out
# Cruzain Triton = blocks cruzain activity in presence of Triton detergent; P25779; purified cruzain, Z-FR-AMC fluorescence, 0.01% Triton; Potency, µM, without a hit: max response, negative = inhibition, actives largely listed as inhibitors; actives 0.43% (n = 200,000); active = well fitted curve in the direction sought with a large enough effect; inconclusive = small, poorly fitted or top-dose-only effect, or another doubt; inactive = no such curve, though single readings can be large; an effect the other way counts as inactive or inconclusive;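 also: plate controls were neutral wells for no effect and buffer without enzyme for full effect; nearly all actives have a fitted effect of over 40% in size; top concentration of the series not given in the record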
# Target sequence (P25779 123-467 limits assumed): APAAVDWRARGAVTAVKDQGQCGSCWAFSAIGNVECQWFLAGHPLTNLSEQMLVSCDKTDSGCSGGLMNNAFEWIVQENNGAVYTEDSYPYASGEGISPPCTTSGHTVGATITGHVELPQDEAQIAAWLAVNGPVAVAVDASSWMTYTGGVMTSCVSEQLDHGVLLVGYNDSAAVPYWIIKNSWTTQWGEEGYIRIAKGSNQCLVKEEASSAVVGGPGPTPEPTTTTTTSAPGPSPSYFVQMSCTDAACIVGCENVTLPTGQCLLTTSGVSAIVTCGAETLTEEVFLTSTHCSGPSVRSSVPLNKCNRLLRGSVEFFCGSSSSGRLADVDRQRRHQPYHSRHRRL
#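 Read-out: AMC fluorescence (360 nm excitation, 450 nm emission), four reads over 2 min, first-to-third difference used. Conditions: cruzain 1.5 nM, Z-FR-AMC 2 uM, pH 5.5 acetate, 5 mM DTT, 0.01% Triton X-100.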
# RE007 growth inh = less growth of the S. pombe RE007 Vpr strain; AID 651644; actives 0.21% (n = 360,000); S. pombe RE007 Vpr strain, BacTiter-Glo ATP luminescence, 24 h; control for the full effect not named in the record; Potency, µM (titrated, usually from 92.2 µM), for inactives: at the highest dose activity change, negative = less growth; active = well fitted falling curve with a large enough effect; inconclusive = small, poorly fitted or top-dose-only effect; inactive = no such curve, though single readings can be large or run the other way;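 also: % is scaled to controls: 0 for no effect and ±100 for the full control effect; nearly all actives have a fitted effect of over 50% in size; the assay follows cell death caused by Vpr and the record does not say whether a fall means rescue or toxicity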
#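 Fission yeast strain RE007, carrying one chromosomally integrated HIV-1 vpr copy, was seeded at OD 0.01 in PMG+AL medium with 23 nL pinned compound. After 24 h at 30 °C and 99% humidity, viability was read by BacTiter-Glo luminescence.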
# SARS PLP yeast = inhibitors of SARS-CoV papain-like protease in yeast. S. cerevisiae expressing SARS-CoV PLpro, growth rescue; control for the full effect not named in the record. Potency, µM (doses to about 32.9 µM), without a hit: at the highest dose activity, positive = growth rescue. actives 0.19% (n = 330,000). AID 485353; also: 0% is about no effect; nearly all actives have a fitted effect of over 55% in size; growth read by luminescence after 48 h
# NS1 function inh = blocks influenza NS1 protein function; Potency, µM (highest dose often 46.1 µM), inactives show top-dose activity, positive = more growth; S. cerevisiae slowed by influenza A NS1, growth recovery by OD600; actives 0.4% (n = 270,000); also: actives are rising curves; nearly all actives have a fitted effect of over 50% in size
#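 In this qHTS, NS1 from influenza A is expressed in budding yeast, where it slows growth. Cells are switched from glucose to 2% galactose medium (pH 6.0, -URA), treated with compound, and growth recovery is read at OD600.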
# Cruzain inh noDet = inhibitors of Trypanosoma cruzi cruzain without detergent | Potency, µM, inactives show max response, negative = inhibition, most hits filed as inhibitors | actives 2.3% (n = 200,000) | purified cruzain, Z-FR-AMC fluorescence, no detergent; active = well fitted curve in the direction sought with a large enough effect; inconclusive = small, poorly fitted or top-dose-only effect, or another doubt; inactive = no such curve, though single readings can be large; an effect the other way counts as inactive or inconclusive;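 also: plate controls were enzyme without inhibitor for no effect and buffer without enzyme for full effect; nearly all actives have a fitted effect of over 40% in size; top concentration of the series not given in the record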
#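 Detergent-free condition (0.00005% Triton X-100) in acetate buffer pH 5.5 with DTT. 1.5 nM enzyme and compound were pre-mixed 15 min, then 2 uM Z-FR-AMC substrate added; reaction progress from fluorescence change between first and third reads (60 s).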
# Marburg entry inh = blocks Marburg virus binding to or entry into cells; Marburg virus pseudotyped entry inhibition, cell reporter; control for the full effect not named in the record; about a third of the inactives were read at about 46 µM; Potency, µM (series often up to 37.8 µM), for inactives: top-dose activity change, negative = inhibition, usual class: inhibitors; actives 1.8% (n = 300,000); AID 540276; active = well fitted inhibition curve with a large enough effect; inconclusive = small, poorly fitted or top-dose-only effect, or effect the other way; inactive = flat fitted curve, though single readings scatter; tested in HEK293 cells; about a fifth of its hits are not listed in these tables; also: % is scaled to controls: 0 for no effect and ±100 for the full control effect; luciferase read-out
# 2A StopGo = lowers the luciferase signal of an FMDV 2A StopGo reporter. Potency, µM (top dose mostly 57.9 µM), for the others: at the top dose signal change, negative = less light. actives 1.2% (n = 410,000). AID 1159524. human cells with a luciferase reporter of 2A StopGo recoding; control for the full effect not named in the record; active = well fitted falling curve with a large enough effect; inconclusive = small, poorly fitted or top-dose-only effect; inactive = no such curve, though single readings can be large or run the other way; tested in HEK293T cells; also: % is scaled to controls: 0 for no effect and ±100 for the full control effect; nearly all actives have a fitted effect of over 45% in size; luciferase light after 4 h
# An asterisk follows results filed as active; ? = inconclusive; nt = not tested or not shown; & = joins results of further samples; [ ] = dose if it differs, or a comment. Unless noted, calls follow the shape of the dose curve; as a rule, active means well fitted rising curve with a large enough effect; inconclusive means small, poorly fitted or top-dose-only effect; inactive means no such curve, though single readings can be large or run the other way. Potency is read from the fitted curve at half-maximal effect. This is a random part of the collection. Share with any hit: about 4.6%.
SMILES,LASV entry inh,Cruzain Triton,RE007 growth inh,SARS PLP yeast,NS1 function inh,Cruzain inh noDet,Marburg entry inh,2A StopGo
COc1cccc(/C=C2/NC(=O)N(CC(=O)Nc3ccc(C)cc3)C2=O)c1OCc1cccc(C(=O)O)c1,7%[46.1 µM],nt,2%,0%,4%,nt,12%[46.1 µM],3%
COc1ccc(C(C#N)N2CCCCC2)cc1OC (stereo not drawn),17%,5.6%,5%,3%,1%,11%,17%,nt
Cc1ccc2nc(SCC(=O)Nc3nonc3N)[nH]c2c1,nt,nt,-4%,-2%,0%,nt,nt,7%
CCN(CC(=O)NCc1ccc(Cl)cc1)C(=O)C1CCN(S(=O)(=O)c2ccc(OC)c(OC)c2)CC1,-18%[46.1 µM],nt,-14%,-2%,nt,nt,-7%,-1%
O=[N+]([O-])c1ccccc1Oc1ccc(C(F)(F)F)cn1,-2%[46.1 µM],nt,3%,-1%,nt,nt,-2%[46.1 µM],4%
CCOC(=O)c1ccc(NC(c2ccc(N(C)C)cc2)P(=O)(OC(C)C)OC(C)C)cc1 (stereo not drawn),?,nt,-1%,-4%,-13%,nt,?,-5%
COc1ccc(/C=C/C(=O)NC(=S)Nc2ccc(C(=O)O)cc2)cc1,12%,-6.6%,22%,18%,27%,?,-7%,-2%
O=S(=O)(O)c1ccc(N=Nc2ccccc2)cc1,19%[46.1 µM],2.6%,-12%,4%,3%&15%,-7%,14%[46.1 µM],-17%
CCCCn1c(N)c(N(CCC(C)C)C(=O)c2cccc(N3C(=O)c4ccccc4C3=O)c2)c(=O)[nH]c1=O,15%,nt,28%,nt,nt,nt,25%,2%
CC(Nc1ccc(Br)cc1)C(=O)Nc1cccc(S(=O)(=O)N2CCOCC2)c1 (stereo not drawn),-1%,nt,4%,-4%,nt,nt,-12%[46.1 µM],7%
CCc1ccc2oc(C(=O)NCC(c3ccc(Cl)cc3)N3CCOCC3)c(C)c2c1 (stereo not drawn),-18%[46.1 µM],-3.4%,nt,nt,nt,15%,3%[46.1 µM],-19%
CC/C(C)=N/N1C(=O)c2ccccc2NC1(C)CC (stereo not drawn),-2%,nt,-17%,1%,3%,nt,?,-2%
COCc1c(C(=O)NC(C)c2ccc(S(N)(=O)=O)cc2)oc2ccccc12 (stereo not drawn),0%[46.1 µM],nt,5%,3%,8%,nt,-8%[46.1 µM],3%
COc1ccc(OC)c(/C=C/C(=O)N(C)CC(=O)Nc2ccc(C)cc2)c1,1%,-11%,-3%,-4%,-10%,-3%,4%,-5%
COc1ccc(C(=O)Nc2ccc(Cc3ccncc3)cc2)cc1Br,nt,nt,-18%,-1%,-2%,nt,nt,-25%
COc1cc(C(=O)N/N=C/c2ccc(OC(=O)c3ccccc3)c(OC)c2)ccc1O,-26%,nt,3%,1%,-3%,nt,19%,?
CO/N=C/c1ccc(N2CCN(C(=O)c3cccc(C(F)(F)F)c3)CC2)c([N+](=O)[O-])c1,-2%,-2.7%,-3%,-7%,-2%,5%,?,?
Nc1c(N(CCC2=CCCCC2)C(=O)Cc2ccc(F)cc2)c(=O)[nH]c(=O)n1Cc1ccccc1,?,nt,-6%,-1%,nt,nt,-18%,-16%
COc1ccc(C2=NN(C(=O)c3ccc(Cl)c([N+](=O)[O-])c3)C(c3ccccc3)C2)cc1 (stereo not drawn),?,-3.9%,-7%,?,29%,?,?,0%
CN(c1nnc(N)s1)C1CCCCC1,5%,-0.8%,6%,2%,?,-1%,11%,-2%
Cc1cc(C(=O)Nc2ccc3c(c2)OCCO3)nn1C(C)(C)C,nt,nt,-4%,2%,0%,nt,nt,57%[activator]
CC1CCN(CC(O)COCCOc2ccc(Br)cc2)CC1 (stereo not drawn),15%,1.5%,-13%,-7%,-6%,-9%,8%,18%
O=C(CCCCCCCCN1C(=O)c2ccccc2C1=O)N1CCOCC1,-5%,nt,-7%,-1%,-6%,nt,?,-19%
Cn1c(N)c(Br)c(-c2ccc(F)cc2)c(C#N)c1=O,?,nt,-1%,2%,nt,nt,-16%[46.1 µM],-6%
COc1ccccc1NC(=O)CCn1c(=O)c2cccn2c2ccccc21,nt,nt,19%,?,-3%,nt,nt,0%

# Further compounds.
SMILES,LASV entry inh,Cruzain Triton,RE007 growth inh,SARS PLP yeast,NS1 function inh,Cruzain inh noDet,Marburg entry inh,2A StopGo
CCN1CCN(c2ncnc3scc(-c4ccc(C)c(C)c4)c23)CC1,-14%,nt,-27%,0%,4%,nt,?,-13%
CCOc1ccc(S(=O)(=O)Nc2ccccc2C(=O)Nc2ccccc2N2CCOCC2)cc1,?,0.3%,1%,-3%,-5%,-18%,2%,5%
CCOC(=O)C1(Cc2ccccc2)CCN(Cc2cc(OC)c3c(c2)OCO3)CC1,8%[46.1 µM],nt,-2%,1%,1%,nt,?,-17%
O=C(N/N=C/c1ccccc1C(=O)O)c1ccncc1,nt,nt,10%,-14%,-65%,nt,nt,-6%
COc1ccc(-n2ncc3c(NC(C)C)ncnc32)cc1,?,-1.6%,12%,19%,-7%,9%,?,0%
O=C(CSc1ccc2nnc(-c3ccccc3)n2n1)NCc1ccc2c(c1)OCO2,nt,0.3%,8%,2%,3%,-6%,nt,-1%
O=C(Nc1nccs1)c1cccc(S(=O)(=O)N2CCCCC2)c1,-3%,-0.5%,2%,-2%,-8%,0%,?,-24%
CCSCCOC(=O)C1=C(C)N(C)C(=O)NC1c1cc(OC)ccc1OC (stereo not drawn),-5%,-4.7%,11%,8%,-11%,4%,?,?
Cc1cc(C(=O)OCC(=O)Nc2nccs2)c2ccccc2n1,nt,nt,-12%,-1%,5%,nt,nt,-18%
COc1cc(C(=O)OCC(=O)N2CCN(C(C)=O)CC2)ccc1OCC(C)C,5%,nt,7%,-3%,nt,nt,4%,5%
Cc1csc(NC(=O)c2cc[n+]([O-])cc2)n1,11%,nt,-8%,-1%,2%,nt,5%,-2%
COc1ccc2c(c1)C(=O)N(CCc1ccc(S(=O)(=O)NC(=O)NC3CCCCC3)cc1)C(=O)C2(C)C,-28%[46.1 µM],-15%,5%,17%,10%,-15%,-4%&-4%[46.1 µM],32%[activator]
COc1ccc(OC)c(NC(=O)CCN2CC(C)CC(C)C2)c1 (stereo not drawn),nt,nt,-24%,-3%,-6%,nt,nt,55%[activator]
O=C(CN1C(=O)COc2ccccc21)NCCN1CCC(Cc2ccccc2)CC1,-13%,5.2%,0%,5%,1%,0%,-24%,-5%
CC(C)NC(=O)CSCc1cccc(Br)c1,7%,-3.7%,-6%,0%,-8%,-3%,14%,nt
CCC/C=N/NC(=O)c1cccc(Br)c1,3%[46.1 µM],nt,-19%,-6%,nt,nt,20%[46.1 µM],-2%
Cc1ccc(NC(=O)CN2C(=O)C3CC=CCC3C2=O)cc1S(=O)(=O)N1CCOCC1 (stereo not drawn),-1%[46.1 µM],nt,5%,-3%,nt,nt,7%[46.1 µM],19%
CC(C)OCCCNC(=O)NC12CC3CC(CC(C3)C1)C2,6%,-4.0%,10%,4%,-7%,2%,-1%,13%
COCCNC(=O)c1ccc(-c2csc(C)n2)cc1,12%,nt,1%,-1%,nt,nt,13%[46.1 µM],55%[activator]
Cc1ccc(-n2nc(CO)c(C(=O)NCCCc3ccccc3)n2)cc1C,14%[46.1 µM],-3.4%,nt,nt,nt,-1%,-13%[46.1 µM],-7%
Cc1ccc(CNC(=O)CCCN2C(=O)CCn3nc(-c4cccn4C)cc32)cc1,17%[46.1 µM],-1.2%,nt,nt,nt,?,nt,26%
CC1=NNC(=O)C1CCC(=O)N/N=C/c1c(Cl)cccc1Cl (stereo not drawn),-24%,nt,5%,0%,nt,nt,2%[14.2 µM],-4%
CCN(CCn1cccn1)C(=O)CC1C(=O)NCCN1Cc1ccc(OC)c(OC)c1 (stereo not drawn),nt,nt,-2%,-3%,6%,nt,nt,1%
O=C(Oc1ccc(NC2=C(Cl)C(=O)c3ccccc3C2=O)cc1)c1ccc([N+](=O)[O-])cc1,nt,-3.1%,-6%,-2%,6%,13µM*,1%,?
COc1ccc(S(=O)(=O)Nc2cc3c4c(c2)C(C)C(=O)N4CCC3)cc1OC (stereo not drawn),9%,nt,-20%,0%,nt,nt,-8%[46.1 µM],20%

# The listing continues.
SMILES,LASV entry inh,Cruzain Triton,RE007 growth inh,SARS PLP yeast,NS1 function inh,Cruzain inh noDet,Marburg entry inh,2A StopGo
Cc1ccccc1NC(=O)CC1SC(=NC2CCCCC2)NC1=O (stereo not drawn),4%,2.2%,-15%,-3%,-5%,4%,0%,-23%
COc1ccc(-c2noc(-c3ccc(C)cc3Cl)n2)cc1OC,14%[46.1 µM],-0.1%,nt,nt,nt,3%,?,49%[activator]
CCN(CC)CCN1C(=O)c2oc3ccccc3c(=O)c2C1c1cccc(Br)c1 (stereo not drawn),-9%,-3.4%,2%,-11%,-12%,-4%,-16%,26%
Cn1c(=O)[nH]c(=O)c2c1nc(Br)n2CCSc1nnnn1-c1ccccc1,-13%,4.2%,-8%,0%,1%,1%,-15%&-15%,nt
Cc1cccc(C)c1NC(=O)N1CCCCCCC1,nt,nt,2%,1%,nt,nt,-8%[46.1 µM],1%
CC(=O)Nc1ccc(S(=O)(=O)NC(CC(=O)NC2CCCCC2C)C(C)C)cc1 (stereo not drawn),-5%,1.1%,-1%,4%,11%,11%,-12%[46.1 µM],-6%
CC(OC(=O)c1ccccc1Nc1ccc(SC(F)F)cc1)C(N)=O (stereo not drawn),?,-9.9%,48%,?,-19%,?,-34%,?
COc1ccc(S(=O)(=O)N2CCC(C(=O)NCCOc3ccccc3F)CC2)cc1OC,-9%,nt,-14%,3%,nt,nt,3%,-14%
CCC(C(=O)OCC(=O)Nc1ccc(C(N)=O)cc1)c1ccccc1 (stereo not drawn),12%,nt,6%,1%,nt,nt,10%[46.1 µM],?
COc1ccc(CCNC(=O)C2CCCN2S(=O)(=O)c2ccc(F)cc2)cc1OC (stereo not drawn),1%,nt,10%,-1%,-6%,nt,-9%[46.1 µM],-16%
Cc1nn(C(C)(C)C)c(OC(=O)c2cccs2)c1S(=O)(=O)c1ccccc1,11µM*,-1.1%,-17%,-8%,-59%,8%,?,?
c1ccc(CC(NCc2ccco2)c2ccccc2)cc1 (stereo not drawn),22%,nt,-5%,2%,nt,nt,-16%[46.1 µM],-25%
